LT uptake inh: blocks cellular internalization of anthrax lethal toxin; Cells, anthrax lethal toxin internalization, FRET ratio (460/530); Potency, µM (top dose mostly 40 µM), without a hit: at the top dose activity change, negative = inhibition, hits mostly inhibitors; hit rate 0.67% among 70,000; AID 912; active = well fitted falling ratio curve with the 530 nm signal flat; inconclusive = other ratio curves, or a change in one channel alone; inactive = flat curves in the ratio and both channels; the % refers to the ratio; note: % is set by controls: 0 for no effect and ±100 for the full control effect; nearly all actives have a fitted effect of over 50% in size; tested in ME-180 cells; beta-lactamase reporter
Prx2 Sm inh: Schistosoma mansoni Prx2 inhibition; S. mansoni Prx2 activity coupled to TGR/GSH (TGR is thioredoxin glutathione reductase), NADPH fluorescence loss, qHTS; some inactives read as strong as hits; hit rate 0.07% among 65,000; Potency, µM; active means full or partial inhibition curve with a strong effect at the top dose; inconclusive means weaker partial or single-point curve; inactive means no accepted curve; note: series up to 57 µM; many of its hits are not listed in these tables
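qHTS, coupled TGR/Prx2 format; 15 min compound preincubation at RT; reaction started with H2O2 (2.5 mM aliquot); kinetic NADPH fluorescence decrease, ex 365/em 450 nm.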
Starred values were filed as active, the others as inactive; ? = inconclusive; / = not tested or not shown; [ ] = remark or other dose. Potency is the fitted concentration of half-maximal effect. A portion of the library, so the mix of outcomes need not match the whole.

Screens in order: LT uptake inh	Prx2 Sm inh
- CCOc1ccc(Nc2nc(C)cc(C)c2C#N)cc1
    -14%	>57
- O=C(O)/C=C1\CCCc2ccccc2[C@H]1O
    -8%	>57
- COc1ccccc1CC1(C)NC(=O)N(CC(=O)Nc2cc(C)on2)C1=O (stereo not given)
    4%	>57
- COc1ccc(NC(C)=O)cc1NC(=O)CSc1nnc(-c2cccnc2)n1C
    0%	>57
- CC(C)(C)c1ccc(OCC(=O)NC2CCS(=O)(=O)C2)cc1 (stereo not given)
    -7%	>57
- O=C(CSc1cccc(C(F)(F)F)c1)N1CCN(S(=O)(=O)c2ccccc2)CC1
    ?	/
- O=S(=O)(Nc1cccc2cccnc12)c1ccc(S(=O)(=O)N2CCCC2)cc1
    ?	>57
- Cc1ccccc1NC(=O)N1C2CCCC1CC(NC(=O)C1CC1)C2 (stereo not given)
    -10%	>57
- COc1ccc(C)cc1NC(=O)C1CC(=O)OC12CCCCC2 (stereo not given)
    2%	>57
- COc1ccc(Cl)cc1N(CC(=O)Nc1ccc2c(c1)OCO2)S(C)(=O)=O
    4%	/
- CCOCCCNCC(=O)N1CCN(S(=O)(=O)c2ccc(C)cc2)CC1
    7%	>57
- CCOC(=O)C1CCN(C(c2cccc(F)c2)c2sc3nc(C)nn3c2O)CC1 (stereo not given)
    ?	>57
- COC(=O)NC(c1ccc(F)cc1)C(C(C)=O)C(=O)OC (stereo not given)
    -8%[8 µM]	/
- CCN=C(Nc1ccc2c(c1)OCO2)SC1CC(=O)N(c2ccccc2F)C1=O (stereo not given)
    -13%	/
- COc1ccc(C(=O)O)cc1F
    -1%	>57
- Cc1nnc(NCCc2ccccc2)[nH]c1=O
    -12%	>57
- COC(=O)c1ccc(CN2C(=O)NC3(CCC(C)CC3)C2=O)o1 (stereo not given)
    -1%	>57
- O=c1c2ccccc2nc2n1CCc1c-2[nH]c2ccccc12
    0%	>57
- Cc1ccc(Cn2ccc(NC(=O)c3cc(-c4ccc(Cl)cc4)on3)n2)cc1
    -3%	>57
- CCN1C(=O)C2(C(C#N)=C(N)Oc3n[nH]c(C(C)C)c32)c2ccccc21 (stereo not given)
    -13%	>57
- COC(=O)CCCC(=O)Nc1ccc(Cl)c(Cl)c1
    ?	>57
- CCOC(=O)CSC1=NC(=O)CS1
    21%	>57
- COC(=O)C1(c2ccccc2)NC(c2cccs2)C2C(=O)N(C)C(=O)C21 (stereo not given)
    -2%	>57
- Cc1noc(C)c1S(=O)(=O)N1CCCC(C(=O)Nc2nccs2)C1 (stereo not given)
    -1%	>57
- N#C/C(C(=O)c1ccccc1)=C1/CCCN1
    -2%	/
- CCCc1nc2oc3c(NCCN(C)C)ncnc3c2c2c1CCCC2
    ?	>57
- Cn1c(COc2ccccc2)nnc1SCC(=O)NCc1ccccc1
    -1%	>57
- Cc1cc(C)n(-c2nc3ccccc3[nH]c2=O)n1
    8%	>57
- CC1CCC(NC(=O)C2CCN(c3cnccn3)CC2)CC1 (stereo not given)
    -1%	>57
- Cn1nc(CC(=O)NC2CCCCCC2)c2ccccc2c1=O
    ?	>57
- COc1ccc(C2NC(=O)c3ccccc3O2)c(OC)c1OC (stereo not given)
    11%	>57
- O=C(O)C[C@H](Sc1ccccc1)c1ccccc1
    5%[8 µM]	>57
- Cc1nn(C)c(C)c1S(=O)(=O)N1CCc2ccccc21
    -11%	>57
- Cc1ccc(C)c(C(=O)CC2(O)C(=O)N(C)c3ccccc32)c1 (stereo not given)
    -18%	>57
- CCOc1nc(N(C)C)nc(-n2nnc(C(C)=O)c2C)n1
    -11%	>57
- C=CCn1cnc2c(c1=O)c1nc3ccccc3nc1n2Cc1ccccc1
    -4%	>57
- COCc1cc(C)nc(Nc2ccc(C)cc2C)c1C#N
    -11%	/
- O=C(CCCN1CCOCC1)c1ccc2c(c1)OCCO2
    5%	>57
- CCOc1ccc(NS(=O)(=O)c2ccc(OCC(=O)N3CCCC3)cc2)cc1
    -12%	>57
- COc1cccc2c1C(=O)c1c(O)c3c(c(O)c1C2=O)C[C@@](O)(C(C)=O)C[C@@H]3O[C@H]1C[C@H](N)[C@H](O)[C@H](C)O1
    16µM*	>57
- CC(CCC(=O)O)(c1cc(Br)c(O)c(Br)c1)c1cc(Br)c(O)c(Br)c1
    18%[8 µM]	>57
- O=C(c1cc(-n2cnnc2)ccc1Cl)N1CCN(c2nc(-c3ccccc3)cs2)CC1
    -11%	>57
- CC1=C(C)CC(C(=O)N2CCN(Cc3ccccc3)CC2)C(C(=O)O)C1 (stereo not given)
    -1%	>57
- COC(=O)CN(n1cnnc1)S(=O)(=O)c1ccc(C)cc1
    1%	>57
- O=C1CN(C(=O)CCCc2c[nH]c3ccccc23)c2ccccc2N1
    ?	>57
- CN(c1ccc(C(=O)NCCSCc2ccco2)cc1)S(C)(=O)=O
    -2%	>57
- O=S(=O)(Nc1nc2ccccc2s1)c1ccc(Br)s1
    -15%	>57
- O[C@H](C[C@@H]1CCCCN1)c1ccc2c(c1)oc1ccccc12
    -11%[8 µM]	>57
- CC(=O)c1c(C)cc(C)c(CSc2nc(C)cc(=O)[nH]2)c1C
    18%	/
- COC(=O)N1CCC2(CCCN(C(=O)Nc3cccc(C#N)c3)C2)CC1
    ?	>57
- Cc1cnc(CNc2cc(-c3cccnc3)ncn2)cn1
    ?	>57
- O=C(Nc1ccc(NC(=O)C2CC2)nc1)c1ccncc1
    -15%	>57
- CC1(C(=O)NC2CCCC2)CCC(=O)N1Cc1cccs1 (stereo not given)
    2%	>57
- COc1ccc(NC(=O)CSc2nnc(-c3ccccc3C)n2N)cc1
    -18%	>57
- COc1ccc(C(c2nnnn2C(C)(C)C)N2CCN(c3nc4ccccc4s3)CC2)cc1 (stereo not given)
    ?	>57
- COc1ccc(OC)c(NC(=O)CSc2nnnn2-c2ccccc2F)c1
    -5%	>57
- COc1cc(S(=O)(=O)NCc2ccccc2)ccc1F
    /	>57
- Cc1c(N=C/C=C/c2ccccc2)cnn1C
    /	>57
- Cn1c(CCNC(=O)C(C)(C)C)nc2ccccc21
    3%	>57
- CCOC(=O)c1ccc(COC(=O)CNC(=O)CNC(=O)c2ccc(OC)cc2)o1
    ?	>57

The list goes on:
Screens in order: LT uptake inh	Prx2 Sm inh
- CC(=O)OCC1OC(c2ccccc2)C(OC(C)=O)C(OC(C)=O)C1OC(C)=O (stereo not given)
    -5%	>57
- O=C1c2ccccc2C(Nc2ccc(F)cc2F)N1CCN1CCOCC1 (stereo not given)
    9%	>57
- CN(C)CCNC(CC(=O)Nc1ccc(Cl)c(Cl)c1)C(=O)O (stereo not given)
    -11%	>57
- O=C(Nc1cccc2ccccc12)N1CCN(c2ccc(F)cc2)CC1
    18%	>57
- O=C(CNC(=O)Cn1ccc2ccccc2c1=O)NCCCN1CCCCCC1
    -3%	>57
- COc1ccc(CCNc2nc(C)nc3c2oc2ccccc23)cc1OC
    10µM*	>57
- C/C(=N\NC(N)=S)c1ccc[nH]1
    -4%[8 µM]	>57
- Cc1[nH]nc2c1C(c1ccc(OC(=O)c3ccco3)cc1)C(C#N)=C(N)O2 (stereo not given)
    3%	>57
- CC(=O)O[C@H]1C(=O)[C@]2(C)[C@H]([C@H](OC(=O)c3ccccc3)[C@@]3(O)C[C@H](OC(=O)[C@@H](O)[C@@H](NC(=O)c4ccccc4)c4ccccc4)C(C)=C1C3(C)C)[C@]1(OC(C)=O)CO[C@@H]1C[C@@H]2O
    ?	>57
- CN1C=C(C(F)(F)F)C=C/C1=C(\C#N)c1nnc2n1CCCCC2
    8%	>57
- O=c1nc(-c2ccccc2)c2cc(Cl)ccc2[nH]1
    ?	>57
- O=C(C1CCCO1)N1CCN(S(=O)(=O)c2ccccc2)CC1 (stereo not given)
    -3%	>57
- CC(NC(=O)c1ccco1)C(c1cccs1)N1CCN(c2ccc(F)cc2)CC1 (stereo not given)
    -11%	>57
- CSc1cccc(NC(=O)CN(C2CCCCC2)S(C)(=O)=O)c1
    0%	>57
- C=CCOc1cccc(C2c3c(oc4ccc(F)cc4c3=O)C(=O)N2CCCN2CCOCC2)c1 (stereo not given)
    -12%	>57
- CCC(C)(C)NC(=O)C(c1ccncc1)N(Cc1cccs1)C(=O)Cn1nnc2ccccc21 (stereo not given)
    12%	>57
- Cc1cnc(CNc2cc(-c3cccc(NS(C)(=O)=O)c3)ncn2)cn1
    -2%	>57
- Cc1cc(NC(=O)CCC(=O)N(c2ccccc2)C2(C(=O)NC3CCCCC3)CCCC2)no1
    7%	>57
- CCOC(=O)Cc1cnc(NC(=O)c2ccccc2)s1
    0%	>57
- O=C(NCc1ccccn1)c1cc(-n2cnnc2)ccc1Cl
    3%	>57
- CCOC(=O)c1c(C(C)(C)C)oc2ccc(OCC#N)cc12
    ?	>57
- CN(C)c1cccc(-c2nnc(SCCCC#N)o2)c1
    3%	>57
- Cc1ccc(C2CC(C(F)(F)F)n3ncc(C(=O)NCc4ccco4)c3N2)cc1 (stereo not given)
    -28%	>57
- COc1c(F)c(F)c(C(=O)Nc2ccc(NC(=O)c3ccco3)cc2)c(F)c1F
    -19%	>57
- CC(C)=NNc1ncnc2nc[nH]c12
    ?	>57
- Cc1noc(C)c1C(=O)N1CCC[C@@]2(CCN(Cc3cc(C(F)(F)F)cc(C(F)(F)F)c3)C2)C1
    13%	>57
- Cc1ccccc1-n1c(Cn2c(=O)sc3ccccc32)nnc1SCC(=O)N1CCCC1
    ?	>57
- CN(C)CCCN=C(N)N
    -10%[8 µM]	>57
- O=C(CCCn1c(=S)[nH]c2cc3c(cc2c1=O)OCO3)N1CCN(c2ccccc2)CC1
    ?	>57
- O=C1CC(Cc2ccccc2)C(=O)N1CCCn1ccnc1 (stereo not given)
    3%	/

Complete entries, looked up by structure.
Cc1ccccc1NC(=O)N1C2CCCC1CC(NC(=O)C1CC1)C2 (stereo not given) is listed with LT uptake inh: -10%; Prx2 Sm inh: >57
CCOCCCNCC(=O)N1CCN(S(=O)(=O)c2ccc(C)cc2)CC1 is listed with LT uptake inh: 7%; Prx2 Sm inh: >57

(list continues)
Screens in order: LT uptake inh	Prx2 Sm inh
- CC(=O)Nc1ccc(C(=O)N2CCN(C(=O)c3ccco3)CC2)cc1
    ?	>57
- N#CCCn1c(Cl)nc2ccccc21
    -9%	>57
- Cc1ccnc(NS(=O)(=O)c2ccc(N)cc2)n1
    -1%[3.58 µM]	>57
- COc1ccc(OCCSc2nnc(-c3ccoc3C)n2C)cc1
    7%	>57
- COc1ccc(-c2cc(NCCc3ccncc3)n3ncnc3n2)cc1
    18%	>57
- CC(C)C[C@@H](CC(=O)N[C@@H](CCCN)CC(=O)N[C@@H]1CCNC[C@H]1C(=O)N[C@H](CC(=O)N[C@@H](CCC(=O)O)CC(=O)O)CC(C)C)NC(=O)[C@@H]1CCCC[C@H]1N
    -3%	>57
- C[C@]1(C(=O)NCCc2c[nH]c3ccccc23)C=C[C@@H](Cc2ccccc2)N1C(=O)c1ccccc1
    1%	/
- O=C(Oc1nsnc1N1CCOCC1)N(c1ccccc1)c1ccccc1
    ?	>57
- CCc1nc2oc3ccccc3c(=O)c2c(=O)n1CCOC
    11%	>57
- Cc1noc(C)c1COC(=O)Cc1ccc(Cl)cc1
    0%	>57
- CCN1CCN(CNC(=O)c2cnccn2)CC1
    7%	>57
- COC(=O)c1ccccc1NC(=O)CC(NCc1ccccc1)C(=O)O (stereo not given)
    -8%	>57
- COc1ccc([C@@H](C)c2cc3c(cc2O)OCO3)cc1
    -10%[8 µM]	>57
- Cc1cc2nc(C)c(Cc3ccccc3)c(=O)n2[nH]1
    -4%	>57
- CCC(C)n1c(SCC(=O)NC(=O)Nc2ccc3c(c2)OCCO3)nc2ccccc2c1=O (stereo not given)
    ?	>57
- Cc1nn(S(=O)(=O)N(C)C)c(C)c1CN1C(=O)c2ccccc2C1=O
    -1%	>57
- CCOC(=O)c1ccc(NC(=O)CSc2nnc(-c3ccncc3)n2C)cc1
    -2%	>57
- O=C(NCc1ccco1)C1CCN(C(=O)c2cc3sccc3n2Cc2ccc(F)cc2)CC1
    -27%	>57
- CCCOc1ccc(N2C(=O)CC(N3CCC(O)(c4cccc(C(F)(F)F)c4)CC3)C2=O)cc1 (stereo not given)
    ?	/
- O=C(COC(=O)C12CC3CC(CC(C3)C1)C2)NCc1ccco1
    16%	>57
- CN1CCC(N(C)C(=O)c2ccccc2Nc2ccc(SC(F)F)cc2)CC1
    -11%	>57
- CCOC(=O)C1CCN(CC(=O)c2c(C)[nH]c3ccccc23)CC1
    -17%	>57
- COc1cc2nc(C3CCC3)n(NC(=O)C3CCC(OC)CC3)c(=O)c2cc1OC (stereo not given)
    -2%	>57
- C=CCn1c(=O)c2c(C)c(C)sc2n2c(Nc3ccccc3)nnc12
    -9%	>57
- OC(CN1CCOCC1)Cn1c(-c2cccc(Cl)c2)nc2ccccc21 (stereo not given)
    /	>57
- Cc1ccccc1Nc1nc(CSc2nnc(-c3ccoc3C)n2C)cs1
    ?	>57
- COc1ccccc1Oc1c(C)oc2c(CN3CCN(C)CC3)c(O)ccc2c1=O
    8%	>57
- COc1ccc(-c2coc3c(CN4CCCCC4)c(O)c(CN4CCCCC4)c(O)c3c2=O)cc1
    3%	>57
- COc1ccc2[nH]cc(CCNc3ncncc3-c3ccccc3CN(C)C)c2c1
    -13%	>57

From PubChem BioAssay
